# Rango dissoc inh: prevents RanGTP from dissociating the Rango-importin beta complex | Potency, µM (series often up to 46.1 µM), without a hit: top-dose activity change, negative = inhibition | AID 540253 | actives 0.071% (n = 340,000) | Biochemical FRET Rango-importin beta, RanGTP-induced dissociation | O95149+P62826; active means falling FRET ratio curve, often poorly fitted, with flat reads before Ran was added; inconclusive means other falling curves, or compound fluorescence or quenching; inactive means flat or rising ratio curve;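 note: potency is the fitted concentration of half-maximal effect; % of control where 0% means no effect; nearly all actives have a fitted effect of over 45% in size; -100% = wells without RanGTP and RCC1; the record marks most hits as doubtful in a second field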
#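 Compounds preincubate 5 min with complex of recombinant Rango and importin beta in PBS with 1 mM DTT. Ran (0.6 uM) loaded with 2 mM GTP plus 0.2 uM RCC1 starts dissociation; FRET is recorded 45 min later.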
# Rango complex inh: inhibitors of Rango-importin beta complex formation | Potency, µM (doses to about 92.2 µM), without a hit: top-dose inhibition of complex formation | Rango CFP/YFP FRET sensor + importin beta, 45 min | actives 0.031% (n = 340,000); active = rising FRET ratio curve, often small or poorly fitted; inconclusive = mostly compound fluorescence or quenching in the first reads; inactive = flat curves in all reads;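 note: potency is the fitted concentration of half-maximal effect; 0% = DMSO wells and 100% = buffer wells lacking importin beta; nearly all actives have a fitted effect of over 15% in size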
# Target sequence (Q14974 whole entry, looked up): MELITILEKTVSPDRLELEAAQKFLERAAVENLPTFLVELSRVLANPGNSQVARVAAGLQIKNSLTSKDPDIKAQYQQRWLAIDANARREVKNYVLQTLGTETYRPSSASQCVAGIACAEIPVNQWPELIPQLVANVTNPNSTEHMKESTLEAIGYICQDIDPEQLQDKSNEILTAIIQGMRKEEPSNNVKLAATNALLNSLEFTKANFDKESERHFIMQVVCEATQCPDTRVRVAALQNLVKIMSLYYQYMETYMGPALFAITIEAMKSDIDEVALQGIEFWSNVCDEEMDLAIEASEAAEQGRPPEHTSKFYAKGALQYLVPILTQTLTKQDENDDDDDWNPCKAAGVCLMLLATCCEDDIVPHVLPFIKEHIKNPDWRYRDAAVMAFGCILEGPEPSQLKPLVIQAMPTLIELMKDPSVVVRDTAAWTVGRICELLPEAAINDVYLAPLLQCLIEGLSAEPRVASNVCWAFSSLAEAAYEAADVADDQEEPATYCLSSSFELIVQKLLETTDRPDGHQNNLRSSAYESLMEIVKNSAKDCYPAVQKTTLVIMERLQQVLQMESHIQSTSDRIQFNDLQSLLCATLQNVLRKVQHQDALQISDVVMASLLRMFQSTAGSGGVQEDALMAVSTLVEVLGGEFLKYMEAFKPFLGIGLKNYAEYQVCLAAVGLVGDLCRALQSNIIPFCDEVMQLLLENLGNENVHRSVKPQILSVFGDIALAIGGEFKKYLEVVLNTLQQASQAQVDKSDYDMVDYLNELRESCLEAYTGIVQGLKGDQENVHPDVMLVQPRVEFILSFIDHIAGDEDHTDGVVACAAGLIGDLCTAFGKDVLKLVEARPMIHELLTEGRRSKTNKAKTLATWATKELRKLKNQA
#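 Inhibition scored from the CFP 486 nm/YFP 530 nm FRET ratio 45 min after adding 0.125 microM importin beta to 50 nM Rango biosensor preincubated 5 min with compound (room temperature, PBS with DTT, Tween-20, BSA). No-importin wells as positive control.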
# GLA inh pH 4.5: alpha-galactosidase A (human) inhibition, pH 4.5. purified enzyme, 4-MU-alpha-Gal fluorescence, pH 4.5. 230,000 tested, under 10 active. activity change, negative = inhibition, % at 105 µM. P06280. AID 1467; inconclusive = small, poorly fitted or top-dose-only inhibition, or a rising curve; inactive = flat fitted curve, though single readings scatter; no compound was filed as active;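 note: 0% = full activity with enzyme and -100% = basal without enzyme; dose as in the result columns while the protocol names 77 µM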
# miR-21 reporter: raises the signal of a miR-21 reporter | HeLa miR-21 FLuc reporter, luciferase, 48 h | Potency, µM (highest dose often 38.3 µM), for inactives: top-dose reporter change, positive = more light | 340,000 tested, under 10 active; active = well fitted rising curve with a large enough effect; inconclusive = small, poorly fitted or top-dose-only effect; inactive = no such curve, though single readings can be large or run the other way;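 note: % of control where 0% means no effect; miR-21 action dims this reporter so a rising signal means less miR-21 action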
#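 Using DMEM plus 10% FBS, HeLa miR-21-FLuc cells are incubated with test compounds (final up to about 40uM) for 48 hours; firefly luciferase signal is then imaged following reagent-mediated lysis.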
# Numbers without * were called inactive; ? = inconclusive; . = not tested or not shown; & = joins results of further samples; [ ] = dose if it differs, or a comment. This is a subset; rates above refer to the full screens.
GLA inh pH 4.5,Rango complex inh,Rango dissoc inh,miR-21 reporter,mol
.,-3.3%,0%,9%,Cc1ccc(N(CC(=O)NCc2ccccc2)C(=O)c2csnn2)c(C)c1
6,-6.3%,-7%,-30%,O=C(c1cc2c(s1)-c1ccccc1S(=O)(=O)C2)N1CCCC1
.,0.9%,0%,-15%,Cc1nc(C)c(-c2ccc(SCc3cccc(F)c3)nn2)s1
6,-1.8%,-1%,22%,COc1ccc(Cl)cc1N1CC(C(=O)Nc2nccs2)CC1=O (centres undefined)
-8,-2.9%,8%,20%,c1ccc(-c2nc3nonc3nc2-c2ccccc2)cc1
.,-0.7%,0%,4%,Cc1ccc(NC(=O)CSc2ccc(-c3cccnc3)nn2)cc1
.,-0.6%,-11%,.,O=C(COc1ccc(-c2ccccc2)cc1)Nc1cccnc1
1,-1.5%,1%,-13%,O=C(CSc1nnc(Nc2ccccc2)s1)Nc1cccnc1Cl
0,0.6%,2%,17%,O=C(C1CCCN(S(=O)(=O)c2cccc3cccnc23)C1)N1CCN(c2ccc(F)cc2)CC1 (centres undefined)
-2,1.0%,1%,0%,C[C@H](NC(N)=O)C(=O)Nc1ccc2c(c1)OCO2
-12,?,?,?,CCC(CO)[n+]1c(C)cc(/C=C2\Sc3ccccc3N2Cc2ccccc2)cc1C (centres undefined)
-9,-5.5%,0%,9%,Cc1ccc(C)c(C(=O)OCC(=O)Nc2cccc(S(=O)(=O)NC3=NCCCCC3)c2)c1
-9,6.7%,1%,-5%,CCCc1nnc(SCc2ccc(OC)cc2)n1N
-10,?,-5%,-15%,O=C(Nc1ccc(C(=O)N2CCOCC2)cc1)c1cccs1
.,0.9%,0%,-3%,COc1cc(NC(=O)CCc2nnc3ccc(N4CCC(C)CC4)nn23)cc(OC)c1
.,-3.5%,8%,.,CCOC(=O)C1CCN(C(c2cc3cc(C)cc(C)c3[nH]c2=O)c2nnnn2C2CCCCC2)CC1 (centres undefined)
2,-4.5%,9%,0%,CS(=O)(=O)NCCOc1ccc(S(=O)(=O)NCCOc2ccccc2)cc1
6,1.1%,-14%,-5%,CCOc1ccc(NC(=S)Nc2ccccc2C2(C)CC2)cc1
-11,7.5%,-15%,-5%,O=C(N/N=C/c1cn(-c2ccccc2)nc1-c1cccnc1)c1cccnc1
-2,-2.6%,36%,6%,CCOC(=O)c1c(NC(=S)N2CCN(C)CC2)sc2c1CCN(C(=O)OCC)C2
5,-3.5%,?,0%,O=C(O)/C=C/C(=O)Nc1ccc(OC(F)F)cc1
8,2.9%,-9%,-1%,COC(=O)Cn1cnc(=O)c(C#N)c1/C=C/N(C)C
.,0.6%,2%,0%,Cc1ccc(-n2ncc3c2CC(C)(C)CC3NC(=O)c2cc[n+]([O-])cc2)cc1 (centres undefined)
.,2.5%,14%,-3%,COCCNC(=O)C1CCN(Cc2cccc(OCc3ccccc3)c2)CC1
-2,2.3%,-8%,-32%,c1ccc2c(c1)oc1c(NCCCN3CCOCC3)ncnc12
-15,3.5%,-16%,-20%,COc1ccc(NC(=S)NNC(=O)CCn2cc([N+](=O)[O-])cn2)cc1
0,-0.2%,1%,-41%,O=C(/C=C/c1ccc2c(c1)OCO2)NCc1ccco1
-21,-1.9%,-10%,7%,COc1cc(C(=O)Nc2ccc(-c3nc4cc(C)ccc4o3)c(O)c2)cc(OC)c1OC
0,5.4%,32%,-1%,COc1cc2cc(CN(CCCN3CCOCC3)C(=O)Nc3ccc(F)cc3)c(=O)[nH]c2cc1OC
-5,2.1%,5%,-45%,COc1ccnc(Oc2ccc(C)cc2)c1C#N
5,-2.4%,-7%,-58%,O=[N+]([O-])c1cc(Cl)ccc1-c1nc(-c2ccccc2)no1
.,4.5%,-12%,-8%,CCOC(=O)c1ccc(-n2c(CCC(=O)O)ccc2-c2ccc(F)cc2)cc1
6,-5.7%,2%,-1%,COCCNC(=O)CN(C(=O)CCC(=O)Nc1cc(C)on1)c1ccc(C)cc1C
11,1.4%,13%,-7%,Cc1[nH]c2ccccc2c1C(=O)COC(=O)C(C)C
3,?,-10%,-33%,O=C(CN1CCCc2ccccc21)N/N=C/c1ccccc1
.,0.7%,29%,1%,COc1cccc(S(=O)(=O)Nc2cccc(C(=O)N3CCCC3)c2)c1
6,-0.2%,0%,-2%,O=C(O)CCc1ccc(-c2ccccc2)n1-c1cccc(O)c1
-2,-1.8%,-8%,?,C/C(Cn1nnc([N+](=O)[O-])n1)=N\NC(=O)c1ccncc1
-1[21.1 µM],-5.2%,-20%,1%,O=C(O)COc1c(-c2ccco2)oc2ccccc2c1=O
-23,-0.2%,4%,-9%,C#CCn1c(O)c(N=NC(=O)C(O)c2ccccc2)c2ccccc21 (centres undefined)
1,?,?,-36%,O=[N+]([O-])c1ccc(N/N=C/c2ccc(OCc3cccc4ccccc34)cc2)nc1
.,0.2%,12%,0%,O=C(c1ccccc1F)N1CCN(C(=O)C2CC2)CC1
2,-3.1%,10%,1%,O=C(NCCc1ccccc1)C1CCN(C(=O)NCc2ccccc2)CC1
1,-1.7%,13%,-1%,Cc1ccc2nsnc2c1NC(=O)c1ccc([N+](=O)[O-])cc1
-4,0.2%,-5%,-12%,COC(=O)CNC(=O)C1CCN(C(=O)OCc2ccccc2)CC1

# An excerpt of these results, comma-delimited.
molecule,GLA inh pH 4.5,Rango complex inh,Rango dissoc inh,miR-21 reporter
COCCNC(=O)CN(C(=O)CCC(=O)Nc1cc(C)on1)c1ccc(C)cc1C,6,-5.7%,2%,-1%
Cc1[nH]c2ccccc2c1C(=O)COC(=O)C(C)C,11,1.4%,13%,-7%
O=C(CN1CCCc2ccccc21)N/N=C/c1ccccc1,3,?,-10%,-33%
COc1cccc(S(=O)(=O)Nc2cccc(C(=O)N3CCCC3)c2)c1,.,0.7%,29%,1%

# Next part.
GLA inh pH 4.5,Rango complex inh,Rango dissoc inh,miR-21 reporter,mol
-9,0.4%,9%,-4%,CC(=O)Cc1nsc(NC(=O)c2cc(-c3ccccc3Cl)oc2C)n1
.,2.8%,-8%,0%,CC1CC(C)CN(CCCNC(=O)C2CCCN(c3ncnc4c3nc3n4CCCCC3)C2)C1 (centres undefined)
-6,-1.0%,12%,2%,Cn1c(=O)c(=O)n(C)c2cc(S(=O)(=O)N3CC(=O)N(CCc4ccccc4)C(=O)C3)ccc21
5,0.4%,-4%,-18%,CCN1c2cccc3cccc(c23)S1(=O)=O
6,-2.7%,13%,-4%,COc1cc(/C=N/NC(=O)CCN2CCN(Cc3ccccc3)CC2)cc(OC)c1OC
-10,-1.4%,-9%,12%&0%,COc1ccc(NC(=O)Cn2nc(C(F)(F)F)c3c2CCCC3)cc1OC
-2,?,-3%,-4%,CC(C)CC(=O)NS(=O)(=O)c1ccc(N)cc1
.,1.4%,23%,-1%,O=C(Nc1ccc(F)cc1)c1cncs1
-1,0.2%,-13%,-10%,CN(C)C(=O)c1cn(-c2ccccc2)nc1-c1cccc([N+](=O)[O-])c1
-1,-6.0%,-7%,4%,CC(=O)c1cccc(NC(=O)C(C)N(C)CC(=O)Nc2ccc(Cl)cc2)c1 (centres undefined)
-5,4.4%,-9%,-55%,CSc1ccccc1-c1nnc(-c2ccc(C)cc2)o1
-9,2.4%,13%,10%,CCOC(=O)C(C)NC(=O)Cn1ncc2c(=O)oc3ccc(C)cc3c21 (centres undefined)
.,-1.0%,4%,.,CC1CN(c2ccccn2)C(C)CN1C(=S)Nc1ccccc1 (centres undefined)
.,-2.2%,30%,20%,Cc1cc(C)c(C)c(S(=O)(=O)N2CCC(C(=O)Nc3ccc(S(=O)(=O)N4CCOCC4)cc3)CC2)c1C
-4,-0.9%,-2%,-7%,COc1ccc(Cn2c(C)c(C)c(C#N)c2NC(=O)Nc2cccc(Cl)c2)cc1
13,?,?,12%,CCOCCOC(=O)C1=C(C)NC2=C(C(=O)CC(c3cccs3)C2)C1c1ccsc1 (centres undefined)
-7,0.5%,32%,0%,CC(=O)c1ccc(N=Nc2ccc(N)cc2)cc1
.,2.1%,-10%,.,Cc1[nH]c2ccccc2c1C(=O)C(C)OC(=O)c1ccc(Cl)nc1 (centres undefined)
14,0.8%,9%,-3%,COc1ccc(CC(=O)N2CCc3cc(OC)c(OC)cc3C2O)cc1OC (centres undefined)
-6,-0.6%,-2%,-3%,Cc1ccc(C(=O)OC2CCCN(C)C2)cc1 (centres undefined)
.,1.7%,11%,-1%,C=CCOC(=O)C1=C(C)NC(=O)NC1c1ccc2c(c1)OCO2 (centres undefined)
8,?,9%,2%,COc1ccc(C(=O)n2nc(C)cc2C)cc1OC
14,-0.4%,6%,-23%,Cc1nc2c(s1)sc1ccccc12
-4,1.3%,-9%,0%,O=C(CSc1ccccc1)Nc1ccncc1
6,0.0%,6%,-2%,CCOC(=O)N1CCN(C(=O)c2ccc3c(=O)n(CCC4=CCCCC4)c(=S)[nH]c3c2)CC1
2&-5,0.2%,15%,0%,C[C@@H](C(=O)NCC1CC1)[C@H]1C[C@]1(C)[C@H](NC(=O)OCc1ccccc1)c1ccccc1
-7,-1.9%,0%,-11%,CC(=O)OCCNC(=O)c1cc2ccccc2oc1=O
.,7.0%,1%,0%,CN([C@@H](C(=O)OC(C)(C)C)c1ccccc1)S(=O)(=O)c1cccc(S(=O)(=O)N(C)[C@@H](C(=O)OC(C)(C)C)c2ccccc2)c1
.,-0.4%,-11%,0%,COc1ccc(CN2CCNC(=O)C2CC(=O)N(C)CCC2CCOCC2)c(OC)c1 (centres undefined)
.,-0.9%,-22%,.,CC1(C)NC(=O)N(CC(=O)OCC(=O)NC(=O)c2ccccc2)C1=O
.,1.7%,-27%,-6%,CCN1CCCC1CNC(=O)Cn1nc(C)n2c(cc3cc(C)ccc32)c1=O (centres undefined)
.,1.2%,9%,-2%,Nc1cccc(-c2nc3ccc(C(=O)c4ccccc4)cc3[nH]2)c1
-3,-0.9%,-3%,0%,CCOC(=O)CNC(=O)Cn1c(C)cc2ccccc2c1=O
.,4.1%,1%,16%,COc1ccc(-c2noc(C3CCCN(C(=O)c4ccccc4OC)C3)n2)cc1 (centres undefined)
?,-2.1%,-8%,-2%,Cc1ccc(C)c(NC(=S)Nc2ccc(S(=O)(=O)Nc3ncccn3)cc2)c1
-10,-2.4%,6%,-6%,CC(=O)C1=C(C)Nc2ncnn2C1c1ccc(Cl)cc1 (centres undefined)
.,-4.1%,-3%,-17%,COC(=O)c1cc(CSc2ncnc3sccc23)oc1C
-1,6.5%,18%,-10%,CCOc1cccc2cc(C(=O)N3CCc4ccccc43)c(=O)oc12
1,-5.3%,-13%,-11%,Nc1ccc2c(c1)Oc1ccccc1C=C2
-2,-0.3%,?,-44%,c1ccc(-c2csc(N3CCSCC3)n2)cc1
6,-3.6%,0%,-11%,CN(C(=O)c1ccno1)c1nnc(-c2ccccn2)s1
-10,1.7%,19%,0%,CC(=O)N[C@@H](Cc1c[nH]c2ccccc12)C(=O)OCC(=O)Nc1ccc(Cl)c(S(=O)(=O)N(C)C)c1
.,-0.5%,9%,.,O=S(=O)(c1ccc2c(c1)OCCO2)N1CCN(S(=O)(=O)c2ccco2)CC1
.,2.9%,-23%,-2%,O=C(Nc1cccc(-c2cccc(Cl)c2)c1)C1CCN(CC2CCOC2)CC1 (centres undefined)
-2,4.9%,10%,-1%,Cc1ccc2[nH]c(C(=O)O)c(NC(=O)c3ccccc3[N+](=O)[O-])c2c1
.,-0.4%,-2%,12%,COc1cc(C(=O)Nc2cccc(NC(=O)c3ccccc3)c2)cc(OC)c1OC

# Just miR-21 reporter and Rango complex inh, for some of the entries so far:
SMILES | miR-21 reporter | Rango complex inh
O=C(Nc1cccc(-c2cccc(Cl)c2)c1)C1CCN(CC2CCOC2)CC1 (centres undefined) | -2% | 2.9%
CN(C(=O)c1ccno1)c1nnc(-c2ccccn2)s1 | -11% | -3.6%
Cc1ccc(C)c(NC(=S)Nc2ccc(S(=O)(=O)Nc3ncccn3)cc2)c1 | -2% | -2.1%

# Screening results deposited in PubChem by National Center for Advancing Translational Sciences (NCATS).
